Screening results: PubChem BioAssay, several laboratories
MLL AF4-AF9 inh = inhibitors of human MLL-AF4/AF9 interaction | P42568 | AlphaScreen, biotin-AF4 peptide binding to FLAG-AF9 | inhibition, % at 10 µM | 0.47% of 350,000 active;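 active = every replicate reaching a set inhibition limit, whatever the replicate mean, cut at about 25% in these data; inconclusive = mean inhibition reaches that limit but some replicates miss it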;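 also: 0% = plate neutral control median and 100% = total signal loss; the record names both 10 and 1 µM as test concentration; the first replicate is given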
Target sequence (P42568 whole entry, looked up): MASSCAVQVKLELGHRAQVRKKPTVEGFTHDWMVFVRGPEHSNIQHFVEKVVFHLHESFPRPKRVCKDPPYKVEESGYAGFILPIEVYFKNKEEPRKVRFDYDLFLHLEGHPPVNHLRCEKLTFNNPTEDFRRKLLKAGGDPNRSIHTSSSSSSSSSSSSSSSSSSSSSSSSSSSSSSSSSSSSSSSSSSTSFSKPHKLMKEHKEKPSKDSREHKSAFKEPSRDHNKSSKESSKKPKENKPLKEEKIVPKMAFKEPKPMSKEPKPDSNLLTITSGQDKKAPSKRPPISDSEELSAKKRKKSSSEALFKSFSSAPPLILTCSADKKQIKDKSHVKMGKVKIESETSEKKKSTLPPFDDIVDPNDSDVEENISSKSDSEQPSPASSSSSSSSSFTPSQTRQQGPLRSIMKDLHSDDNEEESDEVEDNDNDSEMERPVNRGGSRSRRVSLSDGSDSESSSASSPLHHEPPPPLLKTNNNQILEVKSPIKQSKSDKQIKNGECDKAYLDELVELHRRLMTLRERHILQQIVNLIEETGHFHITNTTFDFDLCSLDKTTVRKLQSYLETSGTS
A1 inh = inhibitors of the anti-apoptotic protein A1, read as caspase activation; 0.066% of 330,000 active; caspase activation, % (test concentration not listed); AID 2462; MEF A1-2A-BIM cells, Caspase-Glo 3/7 luminescence, 3 h; percent of clofoctol response, vehicle zero;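 active = over half of replicate activation scores above 10%, or exactly half above 10 with the replicate mean above 10; inconclusive = replicate mean below 10 yet half the replicates above 10; inactive = over half of replicates below 10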;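 also: wells of about 30 µL received 50 nL stock; many hits fall short of the cut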
Beta cell apopt = blocks beta cell apoptosis | INS-1E cytokine-induced death, ATP luminescence, 48 h; percent of positive-control rescue, neutral wells zero | protection from apoptosis, % (no concentration beside the values) | 0.8% of 300,000 active | AID 435005;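 active = all replicates at 75% or more, or half of them and the mean; inconclusive = half reach 75% but not the mean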;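 also: 0% = cytokine-treated negative control wells and 100% = positive control rescue; higher means more ATP so stronger rescue from cytokine killing; wells of about 40 µL received 100 nL stock; the first replicate is given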
rRNA inh HTS = inhibitors of bacterial rRNA selective over humanized ribosomes. AID 720706. E. coli WT GFP vs humanized-ribosome RFP mutants, fluorescence, 24 h; hits give low values; DMSO median 0, no signal -100. 1.6% of 350,000 active. GFP signal change (wild-type ribosome), % (test concentration not listed);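 active = significant combined selectivity score with lowered wild-type GFP, culture density cut under 30%, mutant RFP and density less affected; inactive = any of these conditions unmet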; also: one replicate is shown; some compounds called inactive have numbers as strong as hits
T cruzi repl = T. cruzi replication inhibition. T. cruzi beta-gal in NIH3T3, luminescence, 90 h. 1.4% of 300,000 active. inhibition, % (concentration not given with the values). AID 1885;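 active = mean inhibition across valid replicates above about 55%, limit read from the data; inconclusive = mean below that limit but half or more replicates reach it; inactive = mean below it, under half of replicates reach it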;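 also: signal also drops with host cell toxicity which is not excluded here; 0% = plate median of DMSO wells and 100% = zero luminescence signal; higher percent means less beta-gal luminescence so fewer parasites; stock transfer was 50 nL into about 50 µL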
Vif A3G = inhibitors of Vif binding to APOBEC3G peptide, primary screen, biochemical, TR-FRET, GST-Vif 1-94, biotin-A3G peptide, dose response retest (AID 1117319); 0.57% of 260,000 active; TR-FRET GST-Vif / biotin-A3G peptide binding; higher % means a stronger effect; test concentration not given here; strong numbers were not always called active; inhibition, %; hits with a dose series show IC50 in µM;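 active = above the screen mean plus three standard deviations and confirmed in dose response; inconclusive = results disagree or hit not tested in dose response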;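 also: Vif residues 1-94 fused to GST binding biotinylated APOBEC3G peptide 110-148; 0% = full assay without inhibitor and 100% = GST in place of GST-Vif; retest series ran down from 100 µM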
Calb FLC = affects C. albicans growth with fluconazole; C. albicans CaCi-2 (fluconazole-resistant clinical isolate) + fluconazole, Alamar Blue growth, 48 h; growth inhibition, % (test concentration not listed); 0.57% of 300,000 active;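 active = most replicates above 75%; inconclusive = exactly half above 75%; inactive = most below 75%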;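 also: all wells also contain fluconazole at 8 µg/ml as a sub-toxic cotreatment; 0% = median of DMSO wells and 100% = median of geldanamycin control wells; wells of about 8 µL received 7.5 nL stock; the first replicate is given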
RanGTP-Impb inh = disruptors of Ran-importin-beta complex formation – biochemical, FRET, CFP-Ran, YFP-importin-beta, homogeneous, primary screen | cell-free CFP-Ran/YFP-importin-beta FRET ratio | inhibition, % (concentration not given with the values) | 1.1% of 300,000 active | AID 2216;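 active = most replicates above 15%; inconclusive = exactly half above 15%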;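 also: 0% = DMSO wells and 100% = Ran loaded with GDP instead of GTP; wells of about 40 µL received 100 nL stock; the first replicate is given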
rRNA inh HTS OD600 = recorded beside rRNA inh HTS, whose call it bears; OD600 change, %; measured here: OD600 growth;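 optical density of the mix in the first replicate; 0 = DMSO median and -100 = no signal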
rRNA inh HTS RFP = recorded beside rRNA inh HTS, whose call it bears; RFP signal change, %; measured here: RFP humanized mutant strains;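 first replicate; 0 = DMSO median and -100 = no signal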
* hit, by the source's call; ? = inconclusive; / = not tested or not shown.

Preview (2 entries):
SMILES	MLL AF4-AF9 inh	A1 inh	Beta cell apopt	rRNA inh HTS	rRNA inh HTS OD600	rRNA inh HTS RFP	T cruzi repl	Vif A3G	Calb FLC	RanGTP-Impb inh
O=C(Nn1c(SCc2ccccc2F)nc2ccsc2c1=O)c1ccccc1	-7.6	-0.3	3	-12	-11	0.4	26	/	5	3.1
COC(=O)c1ccc(COc2ncnc3ccccc23)o1	-0.5	0.3	/	12	2	3.2	-3	2%	-3	-0.3

Main list, from the start:
SMILES	MLL AF4-AF9 inh	A1 inh	Beta cell apopt	rRNA inh HTS	rRNA inh HTS OD600	rRNA inh HTS RFP	T cruzi repl	Vif A3G	Calb FLC	RanGTP-Impb inh
O=C(Nn1c(SCc2ccccc2F)nc2ccsc2c1=O)c1ccccc1	-7.6	-0.3	3	-12	-11	0.4	26	/	5	3.1
COC(=O)c1ccc(COc2ncnc3ccccc23)o1	-0.5	0.3	/	12	2	3.2	-3	2%	-3	-0.3
COc1ccc(C2=NOC(C(=O)NCc3ccccc3)C2)cc1 (stereo unspecified)	-16	-1.1	-2	11	15	-10	-37	28%	-19	-1.5
CCOC(=O)c1c(NC(=O)c2ccccc2C)sc2c1CC(C)(C)OC2	/	-0.3	/	/	/	/	14	0%	-2	0.0
CC(C)Oc1ccc(CNC(=O)CCC(=O)N2CCSc3ccccc32)cc1	0.1	0.6	-8	1	-38	-4.9	-5	/	-5	6.3
Cc1ccc2nc(-c3ccc(NC(=O)C(C)N4C(=O)c5ccccc5C4=O)cc3)sc2c1 (stereo unspecified)	/	-0.2	-6	/	/	/	-5	/	-14	0.1
Cc1cc(C)n(CC(=O)c2cccc(N)c2)n1	-4.4	-0.1	-9	8	3	4.3	-8	-3%	4	2.7
COCCCNC(=O)C(F)(F)C(F)(F)C(=O)NCCCOC	/	1.5	-8	/	/	/	5	?	7	-0.5
COC(=O)c1ccc(C(=O)OC)c(NC(=S)N2CCC(N3CCCCC3)CC2)c1	-24	1.6	-11	5	8	-2.8	2	0%	-4	6.1
CCCCNC(=O)/C=C/c1ccc(OC)c(Br)c1	/	0.4	-7	/	/	/	/	12%	24	0.6
Cc1nc(C(=O)N2CCCC(C(=O)c3ccc(Cl)cc3)C2)cs1 (stereo unspecified)	-3.6	-0.5	-3	-3	-6	-8.0	-7	-4%	-2	-2.6
CCOC(=O)/C(C#N)=C\c1cccnc1	-1.4	0.1	-8	10	10	-1.5	-4	0%	-3	?
CCOC(=O)c1sc(NC(=O)c2ccc(OC(C)=O)cc2)nc1C	-0.9	-9.9	14	6	3	-2.6	/	-2%	-16	/
CCC(=O)c1cn(CC(=O)NCc2cccnc2)c2ccccc12	/	1.2	/	/	/	/	-15	0%	2	4.0
CS(=O)(=O)Nc1ccccc1N=C(c1ccccc1)c1ccccc1	-24	0.2	-4	2	0	-2.6	-9	/	3	3.3
CCN(CC)S(=O)(=O)c1ccc2c(c1)nc(SCC(=O)N(C)C1CCS(=O)(=O)C1)n2CC (stereo unspecified)	-4.1	0.4	/	-1	1	0.6	1	-1%	-5	1.3
COC(=O)c1ccccc1NC(=O)CCCn1nc([N+](=O)[O-])cc1C	9.9	1.2	1	6	-3	-3.0	5	3%	0	1.4
COc1ccc(Oc2nc(-c3ccccc3)ncc2C(=O)O)cc1	-7.1	0.0	0	7	15	0.4	-6	/	7	0.6
CCCn1c(NC(=O)c2cccc(S(=O)(=O)N3CCCC3)c2)nc2ccccc21	/	0.5	21	/	/	/	48	?	-6	1.2
CN(C)S(=O)(=O)N1CCC(Oc2ccc(C(=O)NCCc3cscn3)cc2)CC1	-1.9	1.8	-7	-1	1	2.5	-8	/	-5	1.7
C=CCn1c(COc2ccc(Cl)cc2)nnc1SCc1ccc(C#N)cc1	/	-0.1	-2	/	/	/	39	-6%	2	-1.8
O=C(CSc1nnc(NC(=O)C2CC2)s1)Nc1ccc(F)cc1	/	0.0	-5	/	/	/	-2	-1%	17	-2.0
Cc1ccc(S(=O)(=O)N2CCCCCC2)cc1C(=O)Nc1cccnc1	1.0	-1.7	-4	-4	-3	0.7	6	/	-21	-1.5
COc1ccc(C2C(C(N)=O)=C(C)Nc3nc(-c4cccc(Cl)c4)nn32)cc1OC (stereo unspecified)	/	-1.3	-10	/	/	/	5	-2%	32	1.0
COc1cccc(NC(=O)CSc2nnc(C3CCCCC3)n2N)c1	-2.2	0.5	-4	6	4	-2.9	/	/	/	/
OCCC1CN(Cc2ccc(F)cc2Cl)CCN1CCc1ccccc1 (stereo unspecified)	2.5	-0.7	-2	-6	-13	-2.2	8	/	-4	8.0
CCCCn1c(N)c(N(CC(C)C)C(=O)c2cnccn2)c(=O)[nH]c1=O	-0.8	-0.3	2	13	14	2.8	-6	12%	-4	0.3
CO/N=C\Cc1oc(=O)c(NC(=O)c2ccccc2)cc1C(=O)OC	/	0.9	-4	/	/	/	-17	15%	6	1.3
C=CCN=C(NC#N)SCC(=O)NCc1ccccc1	/	-0.3	4	/	/	/	25	9%	2	-1.7
CCN=C1SC(CC(=O)Nc2ccc(C)cc2)C(=O)N1CC (stereo unspecified)	/	1.2	-16	/	/	/	4	-1%	10	0.8
Cc1cc(NC(=O)CN2C(=O)NC(CCc3ccccc3)C2=O)no1 (stereo unspecified)	-1.5	-0.8	1	10	11	-1.2	-11	/	?	?
CSCc1cc(N(C)C)nc(SCc2ccc(Cl)cc2Cl)n1	/	-0.2	1	/	/	/	15	-7%	-15	2.6
O=C1c2cccc3cccc(c23)C(=O)N1CCCSc1ncn[nH]1	4.8	-0.1	-9	-14	-3	0.0	30	-10%	-3	6.0
CN(C(=O)c1cccnc1)c1nnc(-c2cnccn2)s1	/	0.5	1	/	/	/	-12	-1%	-7	-1.6
CC(=O)Nc1ccc(NC(=O)c2cc[n+]([O-])cc2)cc1	0.0	0.2	-2	4	2	-0.8	-12	/	-10	3.2
CC1Cc2cc(/C(O)=C3/C(=O)C(=O)N(CCN4CCOCC4)C3c3ccc(N(C)C)cc3)ccc2O1 (stereo unspecified)	-0.8	1.0	-1	6	9	-1.4	-5	/	2	30*
CN(CC(=O)Nc1ccccc1C(F)(F)F)C(=O)C1CC1	-6.2	0.9	-1	10	7	-0.9	/	/	/	/
Cc1ccc(S(=O)(=O)N2CCN(C(=O)CSc3ccc(F)cc3)CC2)cc1	-2.8	0.5	-2	0	-4	-1.8	1	/	14	-0.1
O=C(Nc1ccc(S(=O)(=O)N2CCCc3ccccc32)cc1)C1CCCO1 (stereo unspecified)	2.4	0.2	-2	/	/	/	-11	2%	-7	4.1
O=C(NNc1ccc(F)cc1F)c1c(F)cccc1Cl	-2.3	0.8	-6	2	10	-2.7	5	?	8	1.5
Cc1ccsc1-c1ccnc(-n2cccc2)n1	/	0.5	-2	/	/	/	10	-1%	10	5.3
N/C(=N\OC(=O)c1cccc2ccccc12)c1ccc(Br)cc1	-2.0	-0.5	12	3	-3	-0.6	1	6%	4	3.5
COC(=O)c1ccc(CSc2nnc(N)s2)o1	0.3	1.2	5	14	7	-0.9	-7	3%	-4	1.3
CCN=C1SC(C(=O)Nc2cc(Cl)cc(Cl)c2)CC(=O)N1CC (stereo unspecified)	0.7	0.9	3	15	11	-4.2	-4	/	-9	1.1
COc1cc2cc(CN(CCc3cccc(C)c3)C(=S)NCCCN3CCOCC3)c(=O)[nH]c2cc1OC	4.1	0.0	4	-11	-12	6.0	11	6%	1	1.8
Cc1cc(C)nc(NC(=NCCc2c[nH]c3ccccc23)NC(=O)Nc2cccc([N+](=O)[O-])c2)n1	1.1	-0.9	36	-4	7	-1.5	-8	-6%	1	2.1
CCOc1cc(C(=O)OCC(=O)N(C)c2ccccc2)cc(OCC)c1OCC	-10	-2.2	8	-8	-9	1.3	12	/	-7	-1.1
COc1ccccc1CCNCc1ccc(OC)c(OCc2ccccc2)c1	/	0.6	45	/	/	/	2	7%	-4	-2.1
O=C(O)c1cc(N=Nc2c(O)[nH]c3ccc([N+](=O)[O-])cc23)ccc1Cl	0.1	-5.1	-5	13	13	-3.6	0	10%	-2	0.4
CCc1nnc(NC(=O)CSc2nc(C3CCCCC3)nc3ccccc23)s1	/	-0.3	6	/	/	/	11	-19%	-3	-0.1
O=[N+]([O-])c1ccc(-n2nncc2-c2ccccc2)cc1	6.4	-0.2	-3	14	3	0.5	-7	/	9	4.1
c1ccc(Oc2ccc(-c3ccn[nH]3)cc2)cc1	-3.1	-0.3	-4	-21	-21	-0.8	3	-7%	-9	2.9
O=C(/C=C/c1ccc(Cl)cc1)Nc1cc(S(=O)(=O)N2CCOCC2)ccc1N1CCOCC1	-9.6	-0.7	6	-11	-7	-1.8	/	-14%	/	/
COc1ccccc1OCCNC(=O)CCNC(=O)c1ccccc1Cl	0.4	-0.1	5	24	17	3.9	-10	/	-9	-1.9
O=C(Nc1cccc(C(=O)Nc2cccc(Br)c2)c1)c1ccccc1	-2.8	-0.3	15	-23	-36	-2.4	-1	/	-7	?
O=C(C/C=N/OCc1ccc(Cl)cc1Cl)c1ccc(Cl)cc1	/	0.6	/	/	/	/	?	5%	0	-0.2
Cc1ccc(OCC(=O)Nc2ccc(N3CCN(C(=O)c4ccco4)CC3)cc2)cc1	-11	0.0	6	4	2	3.6	4	/	-10	0.3
COc1cc2cc(CN(CCCN3CCOCC3)C(=O)Nc3ccccc3F)c(=O)[nH]c2cc1OC	-3.3	-0.5	-5	15	11	-0.8	-2	14%	40	1.8
COCCNC(=O)c1ccc(CS(=O)(=O)c2cccc(C(F)(F)F)c2)o1	-1.1	-0.3	-1	6	7	-0.6	-7	-8%	-5	-3.9
CC(c1ccncc1)C(C)c1ccncc1 (stereo unspecified)	-0.4	1.0	-1	-4	-4	-6.1	?	/	-8	?

Next section:
SMILES	MLL AF4-AF9 inh	A1 inh	Beta cell apopt	rRNA inh HTS	rRNA inh HTS OD600	rRNA inh HTS RFP	T cruzi repl	Vif A3G	Calb FLC	RanGTP-Impb inh
Cc1cc(C)c(C(=O)Cn2nc(C)c([N+](=O)[O-])c2C)cc1C	0.6	-0.9	0	12	10	0.7	-2	-5%	-5	-0.5
Cc1cc(C(=O)NNC(=O)c2c(-c3c(Cl)cccc3Cl)noc2C)no1	-1.3	0.6	3	5	1	-2.2	3	/	20	-1.9
COC(=O)Nc1ccc(S(=O)(=O)N2CCCCC2)cc1	/	1.8	3	/	/	/	-5	-1%	-4	-0.2
Cc1ccc(C(=O)OCC(=O)NCC(F)(F)F)cc1C	0.0	0.5	0	19	12	-3.3	-10	/	-1	1.8
CC(C)n1cc(/C=N/NC(=O)COc2cccc3cccnc23)c2ccccc21	/	0.1	1	/	/	/	15	?	5	2.5
COc1ccc(CC(=O)N/N=C/c2cc([N+](=O)[O-])cc(Br)c2O)cc1	-20	0.8	-2	3	-37	-8.6	-21	-5%	-5	-2.4

Not all compounds are listed; rates above refer to the full screens.
